From PubChem
Vaccinia inh – blocks a specific stage of Vaccinia orthopoxvirus infection. Vaccinia-infected cells, mCherry/Venus stage reporter fluorescence; stronger effect = lower value; some inactives read as strong as hits. activity change (mCherry), % (test concentration not listed). actives 0.01% (n = 89,000). AID 1053133;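 active means mCherry past -33% and 40 or more points under the early reporter, replicates agreeing; inconclusive means past -33% without that gap or agreement; tested in A549 cells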;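 further: scaled between vehicle wells and reference inhibitor wells; 23 nL library stock went into each well; one replicate is shown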
Vaccinia inh Venus – also measured in Vaccinia inh; calls as there; activity change (Venus), %; measured here: Venus reporter, other viral stage;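 negative = less Venus signal; first of two replicates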
Active calls of the source: *; ? = inconclusive; · = no result given. Not all compounds are listed; rates above refer to the full screens.

A first look, five compounds:
structure	Vaccinia inh	Vaccinia inh Venus
Cc1ccccc1-c1ccc2c(c1)O[C@H](CN(C)C(=O)c1ccccn1)[C@@H](C)CN([C@H](C)CO)S2(=O)=O	-6	0
Cc1noc(C)c1S(=O)(=O)Nc1ccc2c(c1)C(=O)N([C@@H](C)CO)C[C@@H](C)[C@H](CN(C)C)OCCCC[C@H](C)O2	17	16
CCCC#Cc1ccc([C@@H]2[C@H]3CN(C(=O)Cc4ccccn4)CCCCN3[C@H]2CO)cc1	-17	-4
C[C@@H]1CN([C@@H](C)CO)C(=O)CCCn2nncc2CO[C@H]1CN(C)C(=O)Oc1cccc2ccccc12	7	-5
COC(=O)[C@H]1[C@H](CO)[C@H]2Cn3c(ccc(/C=C/c4ccccc4)c3=O)[C@@H]1N2C(=O)C1CC1	4	2

All compounds of this part (from the top)
structure	Vaccinia inh	Vaccinia inh Venus
Cc1ccccc1-c1ccc2c(c1)O[C@H](CN(C)C(=O)c1ccccn1)[C@@H](C)CN([C@H](C)CO)S2(=O)=O	-6	0
Cc1noc(C)c1S(=O)(=O)Nc1ccc2c(c1)C(=O)N([C@@H](C)CO)C[C@@H](C)[C@H](CN(C)C)OCCCC[C@H](C)O2	17	16
CCCC#Cc1ccc([C@@H]2[C@H]3CN(C(=O)Cc4ccccn4)CCCCN3[C@H]2CO)cc1	-17	-4
C[C@@H]1CN([C@@H](C)CO)C(=O)CCCn2nncc2CO[C@H]1CN(C)C(=O)Oc1cccc2ccccc12	7	-5
COC(=O)[C@H]1[C@H](CO)[C@H]2Cn3c(ccc(/C=C/c4ccccc4)c3=O)[C@@H]1N2C(=O)C1CC1	4	2
Cc1noc(C)c1NC(=O)Nc1ccc2c(c1)C(=O)N([C@H](C)CO)C[C@H](C)[C@H](CN(C)Cc1ccncc1)OCCCC[C@H](C)O2	18	11
CC=Cc1ccc2n(c1=O)C[C@@H]1[C@@H](CO)[C@H](C(=O)NC3CCC3)N[C@H]21 (mixture of isomers)	4	-7
CC(C)NC(=O)Nc1ccc2c(c1)C(=O)N([C@H](C)CO)C[C@@H](C)[C@@H](CN(C)Cc1ccc(C(=O)O)cc1)O2	8	6
CC=Cc1ccc2n(c1=O)C[C@H]1[C@H](CO)[C@@H](C(=O)NCC3CC3)N(Cc3ccncc3)[C@@H]21 (mixture of isomers)	20	22
O=C(c1cccnc1)N1C[C@H]2[C@@H](c3ccccc31)[C@H](CO)N2CC1CCCC1	-7	-1
C/C=C/c1cnc2c(c1)C(=O)N([C@H](C)CO)C[C@@H](C)[C@H](CN(C)Cc1ccncc1)O2	21	9
O=C(C[C@H]1CC[C@@H](NC(=O)Cc2cccnc2)[C@H](CO)O1)Nc1ccccc1	-2	-1
CNC[C@@H]1Oc2ncc(Br)cc2C(=O)N([C@@H](C)CO)C[C@H]1C	0	4
COc1cccc(C(=O)Nc2ccc3c(c2)C(=O)N(C)C[C@H](OC)[C@H](C)CN[C@@H](C)CO3)c1	2	-3
CCc1cnc(N2[C@@H](C#N)[C@H](c3ccc(-c4cccc(F)c4)cc3)[C@@H]2CO)s1	-14	-6
C[C@H]1CN([C@@H](C)CO)C(=O)c2cc(-c3cccc(C(=O)N(C)C)c3)cnc2O[C@H]1CN(C)S(=O)(=O)c1ccc(F)cc1	7	9
C[C@@H]1CN([C@H](C)CO)C(=O)c2cccc(NC(=O)C3CCCCC3)c2O[C@H]1CN(C)S(=O)(=O)c1ccc(F)cc1	-5	-1
C[C@@H]1CN([C@H](C)CO)C(=O)c2cc(-c3ccncc3)cnc2O[C@@H]1CN(C)C(=O)CN1CCOCC1	33	12
Cc1ccccc1S(=O)(=O)N1C[C@@H](O)COC[C@@H]2O[C@H](CC(=O)N3CCCCC3)CC[C@H]21	30	20
Cc1ccc(-c2ccc3c(c2)O[C@H](CN(C)C(=O)C2CC2)[C@@H](C)CN([C@H](C)CO)S3(=O)=O)cc1	-5	-9

Later entries
structure	Vaccinia inh	Vaccinia inh Venus
C[C@@H]1CN([C@H](C)CO)C(=O)Cc2cc(NC(=O)Nc3ccc(C(F)(F)F)cc3)ccc2O[C@H]1CN(C)CC1CC1	24	13
CS(=O)(=O)N1[C@H](CO)[C@@H](c2ccccc2-c2ccccc2F)[C@@H]1C#N	11	12
COc1ccc(S(=O)(=O)Nc2cccc3c2O[C@H](CN(C)C(=O)Nc2ccc(C(F)(F)F)cc2)[C@H](C)CN([C@@H](C)CO)C3=O)cc1	?	·
CC(=O)N(C)C[C@H]1Oc2cc(C#CC3CCCCC3)ccc2S(=O)(=O)N([C@H](C)CO)C[C@@H]1C	-23	-17
O=C(Nc1ccccc1F)N1CCCCN2[C@H](C1)[C@H](c1ccc(C#Cc3cccnc3)cc1)[C@@H]2CO	-26	-17
Cc1noc(C)c1NC(=O)N(C)C[C@H]1Oc2ccc(NS(=O)(=O)c3cccs3)cc2C(=O)N([C@@H](C)CO)C[C@H]1C	1	1
CCC(=O)N(C)C[C@@H]1Oc2cc(C3=CCCC3)ccc2S(=O)(=O)N([C@@H](C)CO)C[C@H]1C	8	7
C[C@@H]1CN([C@@H](C)CO)C(=O)c2cccc(NC(=O)Nc3ccc(F)cc3)c2O[C@@H]1CN(C)Cc1ccc(C(F)(F)F)cc1	?	·
O=C(Nc1ccc(Cl)cc1)N[C@H]1CC[C@H](CCNC(=O)c2ccccc2F)O[C@H]1CO	1	11
COc1ccc(NC(=O)N(C)C[C@H]2Oc3c(NC(=O)Nc4cccc5ccccc45)cccc3C(=O)N([C@H](C)CO)C[C@@H]2C)cc1	9	3
C[C@H](CO)N1C[C@H](C)[C@H](CN(C)S(=O)(=O)c2ccc(F)cc2)Oc2ccc(NC(=O)C3CCCCC3)cc2C1=O	-11	-9
C[C@@H]1CCCCO[C@@H](CN(C)C(=O)CCCN(C)C)[C@H](C)CN([C@@H](C)CO)C(=O)c2cc(NS(=O)(=O)c3cn(C)cn3)ccc2O1	24	14
CCC(=O)Nc1ccc2c(c1)C(=O)N(C)C[C@@H](OC)[C@H](C)CN(C(=O)c1ccncc1)[C@@H](C)CO2	23	12
Cc1noc(C)c1S(=O)(=O)Nc1ccc2c(c1)C(=O)N([C@@H](C)CO)C[C@H](C)[C@@H](CN(C)C(=O)Nc1ccc(C(F)(F)F)cc1)OCCCC[C@@H](C)O2	-29	-27
C[C@@H]1CN([C@@H](C)CO)S(=O)(=O)c2ccc(/C=C/c3ccccc3)cc2O[C@@H]1CN(C)C(=O)C1CC1	?	·
CN(C)C(=O)c1ccc(-c2ccccc2[C@@H]2[C@@H](CO)N(C(=O)C3CCCCC3)[C@H]2C#N)cc1	10	7
Cc1ccc(S(=O)(=O)Nc2ccc3c(c2)CC(=O)N([C@H](C)CO)C[C@@H](C)[C@@H](CN(C)C)O3)cc1	8	10
CC=Cc1ccc2n(c1=O)C[C@@H]1[C@@H](CO)[C@H](C(=O)N[C@H](C)c3ccccc3)[C@H]2N1CC (mixture of isomers)	-7	1
Cc1noc(C)c1S(=O)(=O)N(C)C[C@@H]1OCCCC[C@@H](C)Oc2ccc(NC(=O)Nc3ccccc3)cc2C(=O)N([C@H](C)CO)C[C@H]1C	-26	-15
CCNC(=O)C[C@H]1CC[C@H]2[C@@H](COC[C@H](O)CN2C(=O)Nc2c(C)noc2C)O1	14	6

New compounds follow.
structure	Vaccinia inh	Vaccinia inh Venus
CS(=O)(=O)N1CC(=O)N2[C@@H](CO)[C@@H](c3ccc(C#CC4CCCC4)cc3)[C@@H]2C1	21	-1
COc1ccc(S(=O)(=O)N(C)C[C@H]2Oc3ccc(NC(=O)Cc4ccccc4)cc3C(=O)N([C@@H](C)CO)C[C@H]2C)cc1	-11	2
C[C@@H]1CN([C@H](C)CO)C(=O)Cc2cc(NC(=O)CCCCCC(=O)Nc3ccccc3N)ccc2O[C@H]1CN(C)S(=O)(=O)c1cn(C)cn1	5	-12
C[C@@H](O)C#Cc1cnc2c(c1)C(=O)N([C@@H](C)CO)C[C@H](C)[C@@H](CN(C)Cc1ccc(-c3ccccc3)cc1)O2	?	·
C[C@H]1CN([C@@H](C)CO)C(=O)c2cc(-c3ccc(C(=O)N(C)C)cc3)cnc2O[C@H]1CN(C)C(=O)C1CC1	2	0
O=C(Nc1cccc(F)c1)N1CCCCN2[C@H](C1)[C@H](c1ccc(C#CC3CC3)cc1)[C@@H]2CO	?	·
COc1ccc2c3c([nH]c2c1)[C@H](CO)N(C(=O)Nc1ccc(F)cc1)CC31CN(S(=O)(=O)c2ccc(C)cc2)C1	15	3
COc1ccc(CN(C)C[C@H]2OCCCC[C@@H](C)Oc3ccc(NS(=O)(=O)c4ccc(F)cc4)cc3C(=O)N([C@@H](C)CO)C[C@@H]2C)cc1	?	·
COCC#Cc1ccc([C@H]2[C@@H](CO)N3CCCCN(Cc4cccnc4)C[C@@H]23)cc1	14	5
C[C@@H]1CCCCO[C@H](CN(C)C(=O)Nc2ccc(F)cc2)[C@@H](C)CN([C@@H](C)CO)C(=O)c2cc(NC(=O)Nc3ccc(C(F)(F)F)cc3)ccc2O1	-13	-6
C[C@H]1CCCCO[C@H](CN(C)S(=O)(=O)c2ccc(Cl)cc2)[C@@H](C)CN([C@@H](C)CO)C(=O)c2cc(NC(=O)C3CCCCC3)ccc2O1	-26	-14
CO[C@H](CN(C)S(=O)(=O)c1ccccc1)[C@@H](C)CN(C(=O)Nc1ccccc1F)[C@@H](C)CO	8	4
C[C@H](CO)N1C[C@H](C)[C@H](CN(C)C(=O)C2CCCCC2)Oc2ncc(-c3cccc(F)c3)cc2C1=O	4	1
O=C(C[C@H]1CC[C@@H]2[C@H](COC[C@H](O)CN2Cc2ccncc2)O1)NCc1ccncc1	-3	-9
Cc1noc(C)c1NC(=O)N[C@@H]1C=C[C@H](CC(=O)N2CCCCC2)O[C@@H]1CO	15	1
Cc1ccc(S(=O)(=O)Nc2ccc3c(c2)C(=O)N([C@H](C)CO)C[C@H](C)[C@@H](CN(C)C(=O)c2ccccc2)OCCCC[C@H](C)O3)cc1	-17	-7
CCCN1C[C@H](C)[C@H](OC)CN(C)C(=O)c2cc(NS(=O)(=O)CC)ccc2OC[C@H]1C	2	8
C[C@@H]1CN([C@H](C)CO)C(=O)Cc2cc(NS(=O)(=O)c3ccc(Cl)cc3)ccc2O[C@@H]1CN(C)Cc1ccc(C(=O)Nc2ccccc2N)cc1	-6	-13
C[C@@H]1CN([C@H](C)CO)C(=O)c2cc(-c3ccccc3)cnc2O[C@@H]1CN(C)C(=O)Nc1ccccc1	-13	-13
O=C(O)C[C@H]1C[C@H]2c3cc(NC(=O)Cc4ccncc4)ccc3O[C@H]2[C@@H](CO)O1	-5	-2

Copied from the list.
Vaccinia inh Venus, Cc1noc(C)c1NC(=O)N[C@@H]1C=C[C@H](CC(=O)N2CCCCC2)O[C@@H]1CO is entered as 1
Vaccinia inh Venus, CO[C@H](CN(C)S(=O)(=O)c1ccccc1)[C@@H](C)CN(C(=O)Nc1ccccc1F)[C@@H](C)CO is entered as 4
Vaccinia inh, C[C@@H]1CN([C@H](C)CO)C(=O)c2cc(-c3ccccc3)cnc2O[C@@H]1CN(C)C(=O)Nc1ccccc1 is entered as -13
Vaccinia inh Venus, C[C@H]1CN([C@@H](C)CO)C(=O)c2cc(-c3ccc(C(=O)N(C)C)cc3)cnc2O[C@H]1CN(C)C(=O)C1CC1 is entered as 0

Continued:
Screens in order: Vaccinia inh	Vaccinia inh Venus
C[C@@H]1CN([C@H](C)CO)C(=O)c2cc(C#Cc3ccccc3F)cnc2O[C@@H]1CN(C)C(=O)C1CCC1
    -9	-10
CC(C)NC(=O)N[C@@H]1CC[C@H](CC(=O)O)O[C@H]1CO
    -10	3
C[C@H](CO)N1C[C@H](C)[C@H](CN(C)C(=O)c2ccc3c(c2)OCO3)Oc2cc(-c3cccnc3)ccc2S1(=O)=O
    -9	7
C[C@H](CO)N1C[C@H](C)[C@H](CN(C)Cc2ccccc2)Oc2ncc(C#Cc3ccc(F)cc3)cc2C1=O
    -29	-16
CC(C)C#Cc1cnc2c(c1)C(=O)N([C@@H](C)CO)C[C@H](C)[C@@H](CN(C)Cc1cccc(F)c1)O2
    -13	-15
C[C@H](CO)N1C[C@H](C)[C@H](CN(C)C(=O)c2cccc(F)c2)Oc2ncc(/C=C/c3ccccc3)cc2C1=O
    -3	-7
Cc1noc(C)c1NC(=O)N[C@@H]1CC[C@H](CC(=O)N2CCN(C)CC2)O[C@H]1CO
    10	13
C[C@@H]1CN([C@H](C)CO)S(=O)(=O)c2ccc(-c3ccc(C(=O)N(C)C)cc3)cc2O[C@@H]1CN(C)C
    13	5
C[C@@H]1CN([C@@H](C)CO)S(=O)(=O)c2ccc(C#Cc3ccccc3)cc2O[C@@H]1CN(C)C(=O)Nc1ccccc1
    -33	-27
C/C=C/c1cnc2c(c1)C(=O)N([C@H](C)CO)C[C@@H](C)[C@H](CN(C)C(=O)CN1CCOCC1)O2
    6	-5
C[C@@H]1CN([C@H](C)CO)C(=O)c2cccc(NS(=O)(=O)c3ccccc3)c2O[C@H]1CN(C)Cc1ccc(C(F)(F)F)cc1
    -22	-16
C[C@@H]1CN([C@H](C)CO)S(=O)(=O)c2ccc(C3=CCCCC3)cc2O[C@H]1CN(C)C(=O)C1CCCCC1
    ?	·
CC(C)NC(=O)N(C)C[C@H]1Oc2cc(C#CC(C)(C)O)ccc2S(=O)(=O)N([C@@H](C)CO)C[C@@H]1C
    16	9
COCC(=O)N1CC[C@H]2[C@H](CO)Nc3ccc(C#Cc4ccccc4)cc3[C@H]21
    -4	6
C/C=C/c1ccc([C@H]2[C@@H](CO)N(C(C)=O)C23CN(C(=O)NC2CCCC2)C3)cc1
    3	6

(list continues)
Screens in order: Vaccinia inh	Vaccinia inh Venus
CN1c2ccc(Br)cc2[C@@H]2[C@@H](CCN2S(=O)(=O)c2ccccc2F)[C@@H]1CO
    -12	-8
CCCC(=O)N1CC2(C1)CN(C(=O)C1CCCCC1)[C@H](CO)c1[nH]c3cc(OC)ccc3c12
    2	0
C[C@@H]1CCCCO[C@H](CN(C)C(=O)Nc2ccccc2)[C@@H](C)CN([C@H](C)CO)C(=O)c2cc(NS(=O)(=O)c3ccccc3)ccc2O1
    4	-7
CO[C@@H]1CN(C)C(=O)c2ccc(NC(=O)C3CCCC3)cc2OC[C@@H](C)N(CCC(F)(F)F)C[C@@H]1C
    -11	-6
